Mtb bLac sens = beta-lactam sensitization of Mtb H37Rv; M. tuberculosis H37Rv growth with meropenem, percent inhibition; hits of this screen are not shown here; inhibition, % at 25 µM; 0.27% of 330,000 active;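 active means about 74% or more and at least 40 points above the plate without the antibiotic, then above 30% in a dose series; inconclusive means first-round hits that could not be retested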;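 further: growth measured after seven days incubation then overnight dye step; 0% = bacteria only wells and 100% = bacteria with antibiotic; twin plates without the antibiotic show which effects depend on it; some results filed as inactive read as strong as hits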
An asterisk follows results filed as active; ? = inconclusive. Not all compounds are listed; rates above refer to the full screens.

SMILES | Mtb bLac sens
CCn1nc(C(=O)NNS(=O)(=O)c2ccc(C)cc2)c2ccccc2c1=O | 1
CCOc1ccc(C(=O)CCC(=O)N2CCN(S(=O)(=O)c3cccc(F)c3)CC2)cc1 | -2
CC[C@@H]1C/C=C\Cc2ccccc2[C@H](C(=O)C[C@H](O)CC(C)=O)OC1=O | -5
CCCc1cc(=O)[nH]c(SCC(=O)N(C)CC(=O)Nc2ccc(F)cc2)n1 | -3
COc1ccc(S(=O)(=O)N2CCCCCC2)cc1C(=O)NCc1ccco1 | -7
O=C1NC(Cc2ccc(O)cc2)c2nc3ccc(Cl)cc3c(=O)n2-c2ccc(Cl)cc21 (stereo not drawn) | 1
Cc1cc(S(=O)(=O)Nc2ccc3cn[nH]c3c2)c(C)cc1Cl | -4
Cc1cccc(C(=O)NCC(=O)OCC(=O)c2ccc(C)s2)c1 | -2
O=C(COc1ncnc2ccc(Br)cc12)NC1CCCC1 | 6
CC(C)CC1NC(=O)c2ccc(Cl)cc2-n2c1nc1ccc(Cl)cc1c2=O (stereo not drawn) | 4
O=C1C=C(c2cc(F)ccc2F)C[C@@H](c2ccc(Cl)cc2)C1 | 4
NNC(=O)C1CC(O)CN1S(=O)(=O)c1ccc2ccccc2c1 (stereo not drawn) | 3
CCN(Cc1nc2cc(Cl)ccc2c(=O)[nH]1)C(=O)C1CC(=O)N(c2cccc3ccccc23)C1 (stereo not drawn) | -2
Cn1nc(C(=O)Nc2cccc(S(=O)(=O)N3CCCC3)c2)c2ccccc2c1=O | 9
Cc1ccccc1-n1c(SCC(=O)Nc2c(C)cccc2C)nc(O)cc1=O | -1
C[C@H](CO)N1C[C@H](C)[C@@H](CN(C)S(=O)(=O)c2ccccc2)Oc2ccc(NC(=O)C3CCCCC3)cc2C1=O | 0
CCCNC(=O)N1[C@H]2CC[C@@H]1C(C(=O)OC)=C(c1c(C)noc1C)C2 | 5
COc1cccc(CN2c3ccc(Br)cc3C(=O)CS2(=O)=O)c1 | -7
O=C(CNC(=O)c1cccc([N+](=O)[O-])c1)OCCCC(=O)c1ccc(F)cc1 | -3
CS(=O)(=O)c1ccc(C(=O)OCC(=O)NCc2cccs2)cc1[N+](=O)[O-] | -4
O=C(COc1ccc(S(=O)(=O)N2CCCC2)cc1)N1CCCC1 | 3
CN(C)CCCNC(=O)CC1C[C@H](C(=O)N2CCOCC2)[C@@]2(CCC3CCCC3)c3[nH]c4ccccc4c3CCN2C1=O (stereo partly drawn) | -1
CCN1C(=O)[C@@H]2[C@@H](c3ccc(-c4ccccc4)cc3)N3CCC[C@@]3(C(=O)OC)[C@@H]2C1=O | -7
CC(C)NC(=O)N(C)C[C@H]1Oc2ccc(NC(=O)CCN3CCOCC3)cc2C(=O)N([C@H](C)CO)C[C@@H]1C | 0
O=C(c1ccoc1)N1CCCC(N2CCN(c3cccc(C(F)(F)F)c3)CC2)C1 (stereo not drawn) | ?
O=C(COC(=O)c1ccc(S(=O)(=O)N2CCCC2)cc1)Nc1ccc(Cl)cc1 | -6
Cc1ccc(NC(=O)CN(C)Cc2cccs2)cc1Cl | 34
O=C(O[C@@H]1[C@H](Cc2ccccc2)NS(=O)(=O)[C@H]2C[C@@H]3C=C[C@]12O3)c1ccccc1Br | 15
CCOC(=O)C1CCN(C(=O)c2ccc(C)o2)CC1 | 2
O=c1c(O)c(-c2ccccc2)oc2cc(O)cc(O)c12 | -3

7 structures from above, sorted by length of the SMILES, rising:
SMILES | Mtb bLac sens
Cc1ccc(NC(=O)CN(C)Cc2cccs2)cc1Cl | 34
O=c1c(O)c(-c2ccccc2)oc2cc(O)cc(O)c12 | -3
O=C(COc1ccc(S(=O)(=O)N2CCCC2)cc1)N1CCCC1 | 3
O=C(COC(=O)c1ccc(S(=O)(=O)N2CCCC2)cc1)Nc1ccc(Cl)cc1 | -6
CCN1C(=O)[C@@H]2[C@@H](c3ccc(-c4ccccc4)cc3)N3CCC[C@@]3(C(=O)OC)[C@@H]2C1=O | -7
CC(C)NC(=O)N(C)C[C@H]1Oc2ccc(NC(=O)CCN3CCOCC3)cc2C(=O)N([C@H](C)CO)C[C@@H]1C | 0
CN(C)CCCNC(=O)CC1C[C@H](C(=O)N2CCOCC2)[C@@]2(CCC3CCCC3)c3[nH]c4ccccc4c3CCN2C1=O (stereo partly drawn) | -1

Carrying on.
SMILES | Mtb bLac sens
O=C(CSc1n[nH]c(-c2cccs2)n1)N1CCCC1 | 3
COc1ccc([C@H]2CC(=O)C=C(c3ccc(OC(F)(F)F)cc3)C2)cc1 | 65
C=CC(=O)NCNC(=O)C=C | 2
COc1cccc(C(=O)O/N=C(\N)c2ccccn2)c1 | -1
CCCOc1ccc(CC(=O)NCCc2ccccc2)cc1OC | -8
CC(=O)N1CCN(C(=O)c2ccc(Cl)c(S(=O)(=O)N3CCc4ccccc43)c2)CC1 | -4
CCC1CCC2(CC1)NC(=O)N(CC(=O)Nc1ccc(OC)c(Cl)c1)C2=O (stereo not drawn) | 1
COc1ccc(N(C)S(=O)(=O)c2ccc(Cl)c(C(=O)NCC(C)(C)N3CCOCC3)c2)cc1 | 2
COc1ccc(S(=O)(=O)N2CCc3ccccc32)cc1C(=O)Nc1ccc(NC(C)=O)cc1 | 1
CC(C)c1cccc(-c2ccc3c(c2)S(=O)(=O)c2cccc(C(=O)NCc4ccccc4Cl)c2C3=O)c1 | -6

Some of the entries so far, tab-delimited:
smiles	Mtb bLac sens
COc1cccc(C(=O)O/N=C(\N)c2ccccn2)c1	-1
CCCOc1ccc(CC(=O)NCCc2ccccc2)cc1OC	-8

Next part:
SMILES | Mtb bLac sens
CC1CC(=NNC(=O)C2COc3ccccc3O2)CC(C)(C)C1 (stereo not drawn) | -5
CC1(C(=O)N2CCN(C(=O)c3ccco3)CC2)CC1(Br)Br (stereo not drawn) | 1
C[C@@H]1COC(=O)[C@@H](Cc2ccc(F)cc2)CC/C=C\C[C@@H](CC(=O)NCCO)C(=O)N1 | 3
Nc1cc(C(=O)OCC(=O)NCCC2=CCCCC2)ccc1Cl | -8
Cc1ccc(NC(=O)COC(=O)CN2C(=O)NC3(CCCC3)C2=O)cc1Cl | -13
COc1ccc(NC(=O)NC2(C(=O)N3CCCC3)CCCCC2)cc1 | -10
CS(=O)(=O)N1Cc2ccccc2CC1C(=O)OCC(=O)NCCc1ccc(S(N)(=O)=O)cc1 (stereo not drawn) | 1
O=S(=O)(Nc1ccc2c(c1)OCO2)c1ccc(F)c(F)c1 | -3
NC(=O)NO | -2
Cc1ccccc1OCC(=O)Nc1cccc(S(=O)(=O)NC2=NCCC2)c1 | -7
Cc1ccc(CN(C)C(=O)CN2C(=O)NC3(CCCC3)C2=O)o1 | 4
C=CCC[C@@H](Cc1ccc(F)cc1)C(=O)OC[C@@H](Cc1c[nH]c2ccccc12)NC(=O)[C@H](CC=C)CC(=O)N[C@H](CO)Cc1ccccc1 | 2
C#CCOCCOCCOCCNc1nc(N2CCN(C(=O)[C@H](CCCN=C(N)N)n3cc(C(N)[C@@H](C)CC)nn3)CC2)nc(N2CCN(C(=O)[C@H](CO)n3cc([C@@H](N)C(C)C)nn3)CC2)n1 (stereo partly drawn) | 5
COc1ccc(CNC(=O)c2ccccc2SCC(=O)NCc2ccco2)cc1 | -4
O=C(COc1cccnc1[N+](=O)[O-])N1CCC(Cc2ccccc2)CC1 | -2
O=c1[nH]c(C2CCCN(S(=O)(=O)c3ccccc3F)C2)nc2c1nnn2Cc1ccccc1Cl (stereo not drawn) | -8
COc1ccc(-c2oc(=O)c3cc(OC)c(OC)cc3c2C(F)(F)F)cc1 | 6
COCCNC(=O)CN(Cc1ccc(OC)cc1)C(=O)CCC(=O)Nc1nccs1 | -1
O=C(CSc1ncccn1)Nc1cccc(S(=O)(=O)N2CCOCC2)c1 | -8
O=C(N/N=C/c1ccc(O)cc1)c1cc(C2CC2)[nH]n1 | -13
O=C(Cc1ccc([N+](=O)[O-])cc1)Nc1cccc(C(=O)N2CCCCC2)c1 | 4
CCN(CC(=O)Nc1c(F)cccc1F)C(=O)c1ccc(N2CCOCC2)c([N+](=O)[O-])c1 | -14
NC(=O)c1ccsc1NC(=O)COC(=O)c1ccc(Cl)cc1 | 93
Cc1c(C(=O)N2CCCCC2)oc2ccccc12 | 1
CCCC1(C(=O)OCC)NC(c2ccc(O)cc2)C2C(=O)N(c3cccc(C(C)=O)c3)C(=O)C21 (stereo not drawn) | -2
Cc1cnc(-n2c(=S)[nH]c3ccccc3c2=O)s1 | 6
CN1C(=O)S/C(=C/c2ccc(OCc3cccc(C(=O)O)c3)cc2)C1=O | 12
CCN(C[C@H]1N[C@@](Cc2ccccc2)(C(=O)OC)[C@H]2C(=O)N(Cc3ccccc3)C(=O)[C@@H]12)S(=O)(=O)c1ccc(C(C)(C)C)cc1 | -12
COc1ccc(NC(=O)Cn2c(C)csc2=O)c(OC)c1 | 4
COc1ccc(-c2csc(NC(=O)CN3C(=O)C4CC=CCC4C3=O)n2)cc1 (stereo not drawn) | 8
CC(C)(C)OC(=O)C[C@@H]1C/C=C\C[C@H](CC(=O)N[C@H](CO)Cc2ccccc2)C(=O)N[C@H](C(C)(C)C)COC1=O | -1
CCCCN(C(=O)c1cc(-c2ccncc2)nc2ccccc12)c1c(N)n(CC(C)C)c(=O)[nH]c1=O | 0
CN1CCC[C@@H]1CCNC(=O)c1c(-c2ccc3c(c2)OCO3)noc1-c1ccsc1 | -9
COc1ccc(COCC(O)CN2CCN(S(=O)(=O)c3ccc(C(C)C)cc3)CC2)cc1 (stereo not drawn) | 3
O=C(NN1C(=O)NC2(CCCCC2)C1=O)c1cc2cc(Cl)ccc2o1 | 0
CCC(C(=O)NC1CCCCC1)N(Cc1cccs1)C(=O)CCC(=O)Nc1cc(C)on1 (stereo not drawn) | -20
O=C(OCC(=O)N1CCOCC1)c1cc2ccccc2oc1=O | -1
COc1cc(C)ccc1OCC(=O)Nc1nnc(C2CC2)s1 | 2
Cc1ccc(C)c(NC(=O)CN2C(=O)NC(C)(c3ccc4c(c3)OCCO4)C2=O)c1 (stereo not drawn) | -3
Cc1ccc(-c2csc(NS(=O)(=O)c3cccc(F)c3)n2)o1 | -2
COc1ccc(C(=O)Nc2ccc(N3CCCCCC3)cc2)cc1S(=O)(=O)N1CCOCC1 | 5
COc1ccc(CN([C@H](C)CO)S(=O)(=O)N(Cc2ccccc2)[C@H](CO)C(C)C)cc1 | 6
COc1ccccc1-c1oc2ccccc2c1C#CC1(O)CCCCC1 | 20
Cc1ccc(-n2c(SCC(=O)NCC3CCCO3)nc3ccccc3c2=O)cc1 (stereo not drawn) | -2
Cc1cc(Cl)ccc1OC(C)C(=O)OCC(=O)Nc1ccc2[nH]c(=O)[nH]c2c1 (stereo not drawn) | -5
CC1CCN(C(=O)COC(=O)c2ccc(Cl)nc2)CC1 | 13
C[C@H]1CN([C@@H](C)CO)C(=O)c2cc(NC(=O)Nc3cccc4ccccc34)ccc2O[C@@H]1CN(C)Cc1ccc(-c2ccccc2)cc1 | 6
Cc1ccc(S(=O)(=O)N2CCC(C(=O)NCCCN3CCCC3=O)CC2)cc1 | -4
COc1ccc(S(=O)(=O)N2CCOCC2)cc1NC(=O)COC(=O)Cc1ccccc1 | 6
Cc1ccc(NC(=O)CN(C)C(=O)/C=C/c2ccc3c(c2)OCO3)cc1 | 5

Already shown: entries from further up.
SMILES | Mtb bLac sens
Cc1ccc(-n2c(SCC(=O)NCC3CCCO3)nc3ccccc3c2=O)cc1 (stereo not drawn) | -2
Cc1cc(Cl)ccc1OC(C)C(=O)OCC(=O)Nc1ccc2[nH]c(=O)[nH]c2c1 (stereo not drawn) | -5
CC1CCN(C(=O)COC(=O)c2ccc(Cl)nc2)CC1 | 13
C[C@H]1CN([C@@H](C)CO)C(=O)c2cc(NC(=O)Nc3cccc4ccccc34)ccc2O[C@@H]1CN(C)Cc1ccc(-c2ccccc2)cc1 | 6
Cc1ccc(S(=O)(=O)N2CCC(C(=O)NCCCN3CCCC3=O)CC2)cc1 | -4
COc1ccc(S(=O)(=O)N2CCOCC2)cc1NC(=O)COC(=O)Cc1ccccc1 | 6
Cc1ccc(NC(=O)CN(C)C(=O)/C=C/c2ccc3c(c2)OCO3)cc1 | 5

(continued)
SMILES | Mtb bLac sens
Cc1cc(C)cc(NC(=O)CN2C(=O)C3CC=CCC3C2=O)c1 (stereo not drawn) | 0
CCOc1ccc([C@@H]2CC=C(C(=O)O)[C@H](c3cccc(Cl)c3)N2S(=O)(=O)c2ccc(C)cc2)cc1 | 0
Cc1ccc(S(=O)(=O)N2CCCCC2)cc1NC(=O)CNc1ccccc1N1CCCC1=O | -2
Cc1noc(C)c1NC(=O)N(C)C[C@H]1Oc2c(NC(=O)Nc3ccc4c(c3)OCO4)cccc2C(=O)N([C@H](C)CO)C[C@@H]1C | 13
Cc1ccc(NS(=O)(=O)c2ccccc2[N+](=O)[O-])cc1S(=O)(=O)N1CCCCC1 | 7
N#Cc1cccc(NS(=O)(=O)c2ccccc2Cl)c1 | 1
CCOC(=O)c1cccc(NC(=O)c2ccc(NC(=O)C3CCCO3)cc2)c1 (stereo not drawn) | 1
CC(=O)c1ccc(S(=O)(=O)NCCC(=O)OCC(=O)N(Cc2ccccc2)C(C)(C)C)cc1 | -1
CC(=O)c1c(C)[nH]c(C(=O)COC(=O)c2nccnc2N)c1C | 3
NCCCCCNC(=O)c1[nH]cnc1C(=O)N[C@@H](Cc1ccccc1)C(=O)OCc1ccccc1 | -9
COc1ccc(CC(=O)NNC(=O)c2ccc(Br)s2)cc1OC | 5
COc1cc(-c2cc(C(=O)OCC(=O)NC3CC3)c3ccccc3n2)cc(OC)c1OC | 1
CN(Cc1ccccc1)C(=O)c1[nH]cnc1C(=O)NC1CCN(C(=O)OC(C)(C)C)CC1 | -10
O=S(=O)(NCCNS(=O)(=O)c1c(F)cccc1F)c1ccc2c(c1)OCCO2 | 9
CC(C)C(=O)N1CCN(c2ccccc2NC(=O)c2ccc(Br)o2)CC1 | 0
COC1=CC=C2[C@H]3Cc4ccc(OC)c5c4[C@@]2(CCN3C)C1O5 (stereo partly drawn) | 0
CCN(CC(=O)Nc1ccc2c(c1)OCCO2)C(=O)c1cc(Cl)nc2ccccc12 | 2
CCNS(=O)(=O)c1ccc(CCC(=O)N2CCCC2)cc1 | -2
